# MARV entry inh: blocks Marburg virus binding to or entry into cells | Marburg virus pseudotyped entry inhibition, cell reporter; control for the full effect not named in the record; about a third of the inactives were read at about 46 µM | Potency, µM (series often up to 37.8 µM), for the others: at the top dose activity change, negative = inhibition, most hits filed as inhibitors | actives 1.8% (n = 300,000) | AID 540276; active = well fitted inhibition curve with a large enough effect; inconclusive = small, poorly fitted or top-dose-only effect, or effect the other way; inactive = flat fitted curve, though single readings scatter; tested in HEK293 cells; about a fifth of its hits are not listed in these tables; further: on the % scale 0 is the no-effect control and ±100 the full control effect; luciferase read-out
# StopGo reporter: FMDV 2A StopGo reporter, luciferase signal; human cells with a luciferase reporter of 2A StopGo recoding; control for the full effect not named in the record; Potency, µM (series often up to 57.9 µM), for inactives: top-dose signal change, negative = less light; actives 1.2% (n = 410,000); active = well fitted falling curve with a large enough effect; inconclusive = small, poorly fitted or top-dose-only effect; inactive = no such curve, though single readings can be large or run the other way; tested in HEK293T cells; further: on the % scale 0 is the no-effect control and ±100 the full control effect; nearly all actives have a fitted effect of over 45% in size; luciferase light after 4 h
# RE007 growth inh: less growth of the S. pombe RE007 Vpr strain; S. pombe RE007 Vpr strain, BacTiter-Glo ATP luminescence, 24 h; control for the full effect not named in the record; Potency, µM (highest dose often 92.2 µM), for inactives: top-dose activity change, negative = less growth; actives 0.21% (n = 360,000); AID 651644; active = well fitted falling curve with a large enough effect; inconclusive = small, poorly fitted or top-dose-only effect; inactive = no such curve, though single readings can be large or run the other way;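 further: on the % scale 0 is the no-effect control and ±100 the full control effect; nearly all actives have a fitted effect of over 50% in size; the assay follows cell death caused by Vpr and the record does not say whether a fall means rescue or toxicity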
#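 Fission yeast RE007 carrying one integrated HIV-1 vpr copy, seeded at OD 0.01 in PMG+AL medium with 23 nL pinned compound. Grown 24 h at 30 degrees; viability read by BacTiter-Glo luminescence after 5 min.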
# LASV entry inh: inhibitors of Lassa virus binding or cell entry; AID 540256; Lassa virus pseudotype entry inhibition, cell reporter; control for the full effect not named in the record; actives 1.2% (n = 300,000); Potency, µM (series often up to 37.9 µM), without a hit: at the top dose activity change, negative = inhibition, usual class: inhibitors; active means well fitted inhibition curve with a large enough effect; inconclusive means small, poorly fitted or top-dose-only effect, or effect the other way; inactive means flat fitted curve, though single readings scatter; tested in HEK293 cells; further: on the % scale 0 is the no-effect control and ±100 the full control effect; nearly all actives have a fitted effect of over 50% in size; luciferase read-out
# SARS PLP yeast: SARS-CoV PLP inhibition in yeast | actives 0.19% (n = 330,000) | AID 485353 | Potency, µM (series often up to 32.9 µM), inactives show at the highest dose activity, positive = growth rescue | S. cerevisiae expressing SARS-CoV PLpro, growth rescue; control for the full effect not named in the record; further: 0% is about no effect; nearly all actives have a fitted effect of over 55% in size; growth read by luminescence after 48 h
# Cruzain inh Det: inhibitors of Trypanosoma cruzi cruzain with detergent; purified cruzain, Z-FR-AMC fluorescence, 0.01% Triton; Potency, µM, for the others: max response, negative = inhibition, usual class: inhibitors; actives 0.43% (n = 200,000); AID 1478; active means well fitted curve in the direction sought with a large enough effect; inconclusive means small, poorly fitted or top-dose-only effect, or another doubt; inactive means no such curve, though single readings can be large; an effect the other way counts as inactive or inconclusive;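 further: plate controls were neutral wells for no effect and buffer without enzyme for full effect; nearly all actives have a fitted effect of over 40% in size; top concentration of the series not given in the record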
# Target sequence (P25779 123-467 limits assumed): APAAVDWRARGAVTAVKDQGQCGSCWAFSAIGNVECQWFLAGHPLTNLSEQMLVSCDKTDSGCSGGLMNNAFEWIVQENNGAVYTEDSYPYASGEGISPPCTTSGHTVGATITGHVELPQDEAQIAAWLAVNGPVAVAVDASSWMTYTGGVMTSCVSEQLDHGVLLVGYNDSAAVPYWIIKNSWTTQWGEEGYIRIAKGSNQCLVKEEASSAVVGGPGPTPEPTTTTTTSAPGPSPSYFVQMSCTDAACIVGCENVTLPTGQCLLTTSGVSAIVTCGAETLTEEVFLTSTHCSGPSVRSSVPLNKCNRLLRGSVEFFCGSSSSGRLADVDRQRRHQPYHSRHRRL
#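 Z-FR-AMC hydrolysis (2 uM substrate) by cruzain (1.5 nM) monitored kinetically at ex 360/em 450 nm after 15 min room-temperature compound exposure; 0.01% Triton X-100, pH 5.5, 5 mM DTT.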
# Cruzain inh noDet: blocks cruzain activity in detergent-free assay; purified cruzain, Z-FR-AMC fluorescence, no detergent; AID 1476; Potency, µM, inactives show max response, negative = inhibition, most hits filed as inhibitors; actives 2.3% (n = 200,000); P25779; active means well fitted curve in the direction sought with a large enough effect; inconclusive means small, poorly fitted or top-dose-only effect, or another doubt; inactive means no such curve, though single readings can be large; an effect the other way counts as inactive or inconclusive;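 further: plate controls were enzyme without inhibitor for no effect and buffer without enzyme for full effect; nearly all actives have a fitted effect of over 40% in size; top concentration of the series not given in the record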
#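 Detergent-free condition (0.00005% Triton X-100) in acetate buffer pH 5.5 with DTT. 1.5 nM enzyme and compound were pre-mixed 15 min, then 2 uM Z-FR-AMC substrate added; reaction progress from fluorescence change between first and third reads (60 s).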
# NS1 inh: influenza NS1 inhibition | S. cerevisiae slowed by influenza A NS1, growth recovery by OD600 | Potency, µM (series often up to 46.1 µM), inactives show at the highest dose activity, positive = more growth | actives 0.4% (n = 270,000) | AID 2326; further: actives are rising curves; nearly all actives have a fitted effect of over 50% in size
#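 A cell-based growth assay was used: compounds that relieve NS1-induced slow growth of budding yeast raise OD600. Assay medium was yeast nitrogen base with ammonium sulphate and -URA supplement, pH 6.0, with 2% galactose.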
# Numbers without * were called inactive; ? = inconclusive; . = no result given; & = joins results of further samples; [ ] = another dose, or the depositor's remark. Unless noted, the call rests on the fitted dose curve; in most records, active means well fitted rising curve with a large enough effect; inconclusive means small, poorly fitted or top-dose-only effect; inactive means no such curve, though single readings can be large or run the other way. Potency means the concentration at half of the fitted maximal effect.
# Second line of a record: MARV entry inh	StopGo reporter	RE007 growth inh	LASV entry inh	SARS PLP yeast	Cruzain inh Det	Cruzain inh noDet	NS1 inh
> CCOCCCNC(=O)/C(C#N)=C/c1ccc(C(=O)OC)cc1
→ -12%[46.1 µM]	?	7%	22%[46.1 µM]	0%	.	.	.
> CCc1ccccc1NC(=O)C(CC)Sc1nc2cc3c(cc2c(=O)n1Cc1ccco1)OCO3 (stereo not given)
→ ?	24%	6%	?	4%	8.2%	3%	12%
> CCC12CCCN3CCC4(C(=C(C(=O)OC)C1)Nc1ccccc14)C32 (stereo not given)
→ -21%	0%	-23%	-6%	-8%	-5.4%	-1%	-4%
> CCn1c(SCC(=O)Nc2ccc(OC)cc2OC)nc2nc3c(cc2c1=O)COC(C)(C)C3
→ 3%[46.1 µM]	-29%	3%	?	3%	.	.	2%
> Cn1nc(C(=O)NCc2ccccc2Cl)c2c1-c1ccccc1SC2
→ -27%[46.1 µM]	17%	.	-12%[46.1 µM]	.	-3.3%	10%	.
> COc1ccc(C(=O)COC(=O)c2ccccc2NS(=O)(=O)c2ccc(O)c([N+](=O)[O-])c2)cc1
→ -29%[46.1 µM]	2%	0%	-2%	-1%	.	.	10%
> COC(=O)C(C)Sc1snnc1-c1ccccc1 (stereo not given)
→ -1%	-12%	-5%	-9%	10%	-4.9%	-11%	-5%
> Cn1cnc2cc(NC(=O)c3ccc(Cl)cc3)ccc21
→ .	40%[activator]	9%	.	-17%	-5.6%	0%	-30%
> COc1ccc(NC(=O)c2ccc(NCC3CCCO3)c([N+](=O)[O-])c2)cc1 (stereo not given)
→ 9%[46.1 µM]	6%	-11%	15%[46.1 µM]	-1%	.	.	6%
> O=C(Cc1cn2ccsc2n1)Nc1ccccc1Oc1ccccc1
→ -27%	-20%	1%	-2%	-9%	-22%	-27%	-9%
> Nn1c(SCC(=O)Nc2ccc(OC(F)F)cc2)nnc(Cc2ccccc2)c1=O
→ -8%[46.1 µM]	-9%	-8%	-25%	-6%	.	.	.
> O=C(OC1CCOC1=O)c1cccc(S(=O)(=O)Nc2ccc(F)cc2)c1 (stereo not given)
→ -2%	65%[activator]	-6%	1%	7%	-6.9%	?	-9%
> COC(=O)c1ccc(COC(=O)CNC(=O)CNC(=O)c2ccc(C)cc2)cc1
→ .	10%	-12%	.	-1%	.	.	4%
> O=C(CNC(=O)COc1ccccc1)NCc1cccnc1
→ 5%[46.1 µM]	2%	-27%	0%	-6%	.	.	1%
> O=C1NCC(c2ccccc2)C1C(=O)N/N=C\c1ccc(-c2cccc(Cl)c2Cl)o1 (stereo not given)
→ -19%	-18%	-17%	-23%	-3%	-8.5%	-1%	30%
> CC(C)(C)NC(=O)c1ccc(COc2ccccc2Br)o1
→ -10%	?	-5%	3%	-16%	-8.8%	-9%	-66%
> Oc1ccccc1CNc1ccc(Br)cn1
→ ?	0%	3%	?	-4%	-9.7%	12%	-41%
> O=S(=O)(c1cccc2nsnc12)N1CCN(c2ncccn2)CC1
→ 1%	?	15%	1%	2%	1.2%	-14%	-5%
> CSc1ccc(-c2nc(O)c3cnccn23)cc1
→ 10%[46.1 µM]	8%	-9%	-2%[46.1 µM]	-2%	.	.	-6%
> O=C(c1ccc([N+](=O)[O-])o1)N1CCc2ccccc21
→ ?	0%	-9%	-12%	18%	.	.	-68%
> Cn1ccc(NC(=O)CCl)n1
→ ?	?	3%	?	13%	.	.	.
> Cc1ccc(CNC(=O)C2(S(=O)(=O)c3ccc(C)cc3)CC2)cc1
→ ?	-17%	9%	?	1%	.	.	3%
> Cc1ccc(C)n1-c1nc(=S)[nH][nH]1
→ -11%	6%	-6%	49%[14.3 µM]	11%	1.2%	-1%	15%
> O=C(Cn1cc(C(=O)C2CC2)c2ccccc21)Nc1ccccc1Cl
→ -2%[46.1 µM]	-28%	7%	11%	-7%	.	.	-10%
> O=C1CS/C(=C\[N+](=O)[O-])N1c1ccc(OC(F)(F)F)cc1
→ 3%	-16%	-28%	-2%	-1%	0.0%	3%	13%
> COc1cccc2cc(-c3nnc(Nc4c(F)cccc4F)s3)c(=O)oc12
→ .	3%	.	13%[46.1 µM]	.	2.7%	6%	.
> O=C(c1sc2cccc(F)c2c1Cl)N1CCN(c2ncccn2)CC1
→ 8%	-3%	-21%	-4%	?	-19%	-2%	-2%
> O=Cc1cc(N=Nc2cccc(C(=O)O)c2)ccc1O
→ ?	-16%	-13%	-18%[46.1 µM]	2%	.	.	.
> CC(N=Cc1c(O)c2ccccc2oc1=O)C(=O)O (stereo not given)
→ -12%[46.1 µM]	-2%	-6%	?	0%	.	.	.
> COc1ccc(N2CCN(C(=O)CNC(=O)c3ccccc3Cl)CC2)cc1
→ -21%	?	2%	-6%	-1%	.	.	4%
> O=C(CCS(=O)(=O)c1nc(-c2ccc3c(c2)OCO3)cc(C(F)(F)F)n1)Nc1ccccc1F
→ -27%[46.1 µM]	?	.	?	.	-16%	-22%	.
> COc1cc(NC(=O)NCCN2CCN(c3ccccc3)CC2)cc(OC)c1OC
→ -20%	3%&6%	2%	13%	-2%	1.7%	9%	3%
> C1CCc2c(c(N3CCOCC3)nc3sc4c(N5CCOCC5)nnnc4c23)C1
→ -8%	-9%	-5%	?	.	.	.	.
> CNC(=O)CSc1nc2cccnc2n1-c1ccc(F)cc1
→ 7%	-11%	5%	2%	-3%	.	.	28%
> Cc1cc(SCc2ccccc2C)nc(=O)[nH]1
→ .	8%	0%	.	-5%	.	.	5%
> CC(C)C1Oc2cc3oc(=O)ccc3cc2C1=O (stereo not given)
→ ?	-3%	24%	-15%[46.1 µM]	-1%	.	.	2%
> CCOCCCN(C(=O)c1snc(C(N)=O)c1N)C(C(=O)NCCC(C)C)c1ccc(Cl)cc1 (stereo not given)
→ ?	-6%	0%	?	-1%	.	.	20%
> O=C1OCCN1C(=O)[C@H]1[C@H](c2ccc(F)cc2)C(c2ccccc2)=NN1c1ccccc1
→ .	-7%	-5%	.	-5%	-1.2%	-16%	.
> CSc1ncccc1C(=O)NCc1nnc2ccccn12
→ 5%[46.1 µM]	20%	2%	20%[46.1 µM]	0%	.	.	.
> O=C(O)/C(=C\c1ccco1)NC(=O)c1ccccc1
→ 8%	-22%	-4%	22%	-16%	-4.7%	-18%	-1%
> Fc1ccccc1-c1n[nH]c(=S)n1Cc1ccccc1
→ .	-3%	-11%	.	4%	.	.	-1%
> Cc1cc(C)c(C)c(S(=O)(=O)ON2C(=O)c3ccccc3C2=O)c1C
→ ?	?	?	?	-6%	20µM*	25µM*	-47%
> O=C(CN(Cc1ccco1)C(=O)c1cccc(Cl)c1)Nc1c(Cl)cc(Cl)cc1Cl
→ -10%	-24%	20%	?	-5%	-1.2%	12%	11%
> CC(/C=C1\SC(=S)N(CCCC(=O)Nc2ccc(C(=O)O)c(O)c2)C1=O)=C\c1ccccc1
→ 14%	26%	0%	-12%	8%	28µM*	?	20%
> O=C(NC1CC1)C1CCCN(C(=O)Nc2ccc(F)cc2)C1 (stereo not given)
→ 2%	-1%	2%	3%	-6%	-1.3%	-8%	-4%
> Cc1cc(NC(=O)CCCC(=O)N(c2ccccc2)C(C(=O)NC2CCCCC2)c2cccs2)no1 (stereo not given)
→ 2%	88%[activator]	0%	0%	1%	-0.4%	-10%	-4%
> Cc1cc(=O)oc(C)c1C(=O)NCc1cccnc1
→ 17%	11%	7%	3%	2%	-1.6%	-1%	-3%
> O=C(CNC(=O)N1CC(=O)Nc2ccccc21)Nc1ccc(F)c(Cl)c1
→ .	-14%	-8%	.	10%	.	.	-1%
> COc1ccc(N(CC(=O)Nc2cc(OC)cc(OC)c2)S(=O)(=O)c2c(C)n[nH]c2C)cc1
→ -9%[46.1 µM]	-8%	-4%	-23%[46.1 µM]	-1%	.	.	-15%
> CCN(CC)CCOc1ccccc1OC
→ ?	3%	0%	2%	0%	.	.	0%
> O=C(NCCc1ccc(Cl)cc1)C1CCC(=O)N1C1CCCC1 (stereo not given)
→ 3%	.	-20%	-2%	0%	2.1%	-2%	-2%
> CC(C)Cn1c(N)c(C(=O)CSc2nccn2C)c(=O)n(C)c1=O
→ 6%	-16%	-6%	?	0%	.	.	.
> Cc1ccc(CSc2nnc(-c3cccnc3)o2)cc1
→ ?	11%	-9%	2%	-8%	-8.8%	0%	-53%
> Cn1c(=O)oc2cc(S(=O)(=O)N3CCN(c4ccccc4F)CC3)ccc21
→ -8%[46.1 µM]	3%	3%	11%[46.1 µM]	14%	.	.	1%
> CCCOc1cccc(C(=O)NCCNC(=O)c2ccccn2)c1
→ 6%[46.1 µM]	30%	-2%	-1%[46.1 µM]	-2%	.	.	0%
> CCC1CCCCN1C(=O)c1ccccc1OC1CCN(S(C)(=O)=O)CC1 (stereo not given)
→ .	-2%	-16%	.	-1%	.	.	3%
> Cc1ccnc(NS(=O)(=O)c2ccc(CC(C)C)cc2)c1
→ ?	140%[activator]	2%	-18%	15%	5.0%	-3%	-1%
> CC(C)n1c(C(F)(F)F)nc2cc(C(=O)N3CCCCC3)ccc21
→ -1%	-7%	-1%	0%	0%	.	.	-14%
> COc1cc(/C=C2\C(=O)ON=C2c2ccccc2)cc(Cl)c1O
→ -4%[46.1 µM]	7.1µM*	-16%	2%	-1%	.	.	.
> CCCNC(=O)c1cc(-c2ccc(OC)cc2)on1
→ 10µM*	18%	-8%	?	3%	9.3%	4%	-18%
> Cc1cc(C)nc(SCC(=O)NN=C2CCCC2)n1
→ 4%	-1%	1%	-10%	1%	.	.	.
> Cc1nnc(Sc2nc3c(c(=O)n(C)c(=O)n3C)n2Cc2ccccc2Cl)s1
→ 2%	-3%	13%	-22%	.	.	.	2%

# Source: PubChem BioAssay
